Screening results: PubChem, Johns Hopkins Ion Channel Center
KCNQ2 enhance = potentiators of rat KCNQ2 potassium channel; Potassium voltage-gated channel subfamily KQT member 2 (Rattus norvegicus), O88943; CHO-K1 KCNQ2, FluxOR thallium flux fluorescence; stronger effect = higher value; B-score at 10 µM; 310,000 compounds, 0.54% hits; AID 2239, 2010;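 active = fluorescence ratio B-score at least 3 SD of library B-scores, with initial fluorescence B-score within 3 SD, cut at about 5.3 in these data; same plate scores as AID 2156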;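 note: B-score of peak minus minimum over baseline fluorescence ratio after K+ and Tl+ stimulus; positive B-score means potentiation of KCNQ2 with more thallium influx and brighter signal; only the inactives scoring about 0 or higher are listed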
Target sequence (O88943 whole entry, looked up): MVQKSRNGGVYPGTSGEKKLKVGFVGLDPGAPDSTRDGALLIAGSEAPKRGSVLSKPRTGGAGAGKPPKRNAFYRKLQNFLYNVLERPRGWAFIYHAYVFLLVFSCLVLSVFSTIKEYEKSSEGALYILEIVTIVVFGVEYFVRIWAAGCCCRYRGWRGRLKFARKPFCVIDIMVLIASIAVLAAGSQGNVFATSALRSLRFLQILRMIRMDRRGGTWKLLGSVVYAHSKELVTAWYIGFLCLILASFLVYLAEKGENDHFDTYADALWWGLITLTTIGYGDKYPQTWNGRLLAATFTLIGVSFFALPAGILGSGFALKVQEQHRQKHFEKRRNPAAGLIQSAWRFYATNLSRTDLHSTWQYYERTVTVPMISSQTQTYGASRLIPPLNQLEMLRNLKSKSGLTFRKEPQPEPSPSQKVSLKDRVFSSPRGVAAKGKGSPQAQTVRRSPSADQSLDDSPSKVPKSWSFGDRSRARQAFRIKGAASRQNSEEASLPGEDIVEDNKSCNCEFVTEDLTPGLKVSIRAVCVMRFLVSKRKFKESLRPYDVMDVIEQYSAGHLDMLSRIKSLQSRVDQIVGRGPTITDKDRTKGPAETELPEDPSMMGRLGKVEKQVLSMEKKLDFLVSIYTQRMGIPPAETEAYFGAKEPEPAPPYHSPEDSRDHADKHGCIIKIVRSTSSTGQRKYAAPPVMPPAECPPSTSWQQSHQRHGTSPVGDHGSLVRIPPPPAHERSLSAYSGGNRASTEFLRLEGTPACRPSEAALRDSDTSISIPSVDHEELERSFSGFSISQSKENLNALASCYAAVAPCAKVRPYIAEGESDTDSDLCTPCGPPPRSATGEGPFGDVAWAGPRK
KCNQ2 enhance baseline = second read-out of KCNQ2 enhance, no call of its own (marks repeat the call); B-score; compound at 10 µM; measured here: initial fluorescence intensity artifact check;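 brightness before thallium and not channel activity; 0 = typical well and far values either way flag optical interference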
Numbers without * were called inactive.

SMILES	KCNQ2 enhance	KCNQ2 enhance baseline
Cc1cc(N2C(=O)C(=O)/C(=C(/O)c3ccccc3)C2c2cccc(Br)c2)no1 (stereo unspecified)	0.01	-0.34
COc1ccc(C)cc1S(=O)(=O)N(CC(=O)Nc1cccc([N+](=O)[O-])c1)c1ccccc1	0.79	-0.7
O=C(Nc1cc(Cl)ccn1)C1CCN(S(=O)(=O)c2cccs2)CC1	0.04	0.71
CCOC(=O)CCCNc1ccc([N+](=O)[O-])cc1[N+](=O)[O-]	0.33	1.6
Cc1ccccc1C(=O)N1CCN(c2ccc([N+](=O)[O-])c(NCc3ccco3)c2)CC1	0.53	-0.02
COc1cc(CN2CCNC(=O)C2CC(=O)N2CCCCO2)cc(OC)c1 (stereo unspecified)	0.73	-1
O=C(Nc1cccc(Cl)c1)N1CCN(Cc2ccccc2)CC1	0.56	-0.12
CCCNC(=O)c1ccc2c(c1)S(=O)(=O)c1ccccc1C2=O	2.3	-0.41
CC(=O)c1cc2c(cc1NS(=O)(=O)c1ccc3c(c1)OCCO3)OCO2	0.01	-0.52
Cc1ccc(S(=O)(=O)NCc2ccncc2)cc1	1	-0.75
Cc1c(C=O)n(C)n(-c2ccccc2)c1=O	0.31	1.6
CC1CN(C(=O)COc2ncnc3ccccc23)CC(C)O1 (stereo unspecified)	0.71	0.34
COc1cccc(-c2nc(-c3ccc(NC(=O)c4ccncc4)cc3)no2)c1	0.23	-3
Cc1ccccc1NC(=S)Nn1cnnc1	0.98	-0.97
CC1(C)CC(N2CCCC2)=CC(=[N+]2CCCCCC2)C1	1.2	-0.81
CCN1CCN(CC(=O)Nc2cccc(C)c2C)C(=O)C1=O	1.6	-0.17
COc1ccc(OCCCC(=O)NNC(=O)c2ccncc2)cc1	1.5	-0.4
CCC(C)[C@H](NC(=O)[C@@H]1CSC2c3ccccc3C(=O)N21)C(=O)NCC1CCCO1 (stereo partly specified)	0.02	-0.02
CC(C)CCN1C(=O)c2ccc(C(=O)Nc3c[nH]c(=O)[nH]c3=O)cc2C1=O	0.49	-1
COc1ccc(C(=O)C2CCCN(Cc3cccn3-c3nccs3)C2)cc1F (stereo unspecified)	0.03	-1.3

Given with values under each structure: part of the list above.
Every second line gives: KCNQ2 enhance	KCNQ2 enhance baseline
O=C(Nc1cc(Cl)ccn1)C1CCN(S(=O)(=O)c2cccs2)CC1
 : 0.04	0.71
COc1ccc(C)cc1S(=O)(=O)N(CC(=O)Nc1cccc([N+](=O)[O-])c1)c1ccccc1
 : 0.79	-0.7
COc1cccc(-c2nc(-c3ccc(NC(=O)c4ccncc4)cc3)no2)c1
 : 0.23	-3
CC(C)CCN1C(=O)c2ccc(C(=O)Nc3c[nH]c(=O)[nH]c3=O)cc2C1=O
 : 0.49	-1

(listing goes on)
SMILES	KCNQ2 enhance	KCNQ2 enhance baseline
O=C(CC1C(=O)NCCN1Cc1c(F)cccc1Cl)NCCCn1ccnc1 (stereo unspecified)	0.16	-0.71
COc1ccc(-c2cn(Cc3ccc(C(=O)c4ccccc4)cc3)nn2)cc1	0.62	-1.7
COc1ccccc1/C=C1/C(=O)N(c2ccc([N+](=O)[O-])cc2)N=C1C	1.1	0.32
COc1ccc(CNC(=O)CSc2ncnc3ccccc23)cc1OC	0.85	0.32
CC[C@H](C)[C@H](NC(N)=O)C(=O)NNC(=O)c1ccc(COc2cccc3cccnc23)cc1	0.25	1.8
O=C(Nc1ccc(F)cc1)c1cc2cc(Cl)ccc2[nH]1	0.5	1.2
O=C(O)C1Nc2c(cccc2C(F)(F)F)C2C=CCC12 (stereo unspecified)	0.49	0.01
CCCC(C)C(=O)Nc1ccc(NC(C)=O)cc1 (stereo unspecified)	2.5	-0.71
O=C(N/N=C/c1ccc[nH]1)c1c[nH]c2ccccc12	0.29	-0.57
Cc1ccccc1NC(=O)CCCSc1nc2ccccc2s1	0.34	0.18
Cc1nc([N+](=O)[O-])cn1CC(O)c1ccc(-c2ccccc2)cc1 (stereo unspecified)	0.06	0.66
Cc1nnc(NC(=O)c2ccco2)s1	0.26	-0.08
CC(C)c1ccc(NC(=O)COc2ccccn2)cc1	1.2	-0.19
COC(=O)Cc1ccc(NC(=S)N2CCN(c3ccc(OC)cc3)CC2)cc1	0.21	2.1
COc1cc(Cl)c(C)cc1NC(=O)CCCN1C(=O)CCC1=O	0.5	0.23
C=CCSc1nnc(CNC(=O)c2ccc(Cl)cc2)n1CC	0.59	-0.49
COc1ccc(C(=O)C[n+]2ccccc2C)cc1	0.03	0.8
CCCNC(=S)N1CCC(NC(=O)C2CCCCC2)CC1	0.41	-1.4
Oc1ccccc1/C=N/Nc1nccnc1Cl	0.07	1.2
O=c1[nH]nc(SCc2nnc(-c3cccc(Cl)c3)o2)n1C1CCCCC1	0.37	-0.79
c1nc(N2CCCCC2)c2[nH]cnc2n1	1.7	-0.98
CCNC(=O)CC1C(=O)N(c2ccccc2)C(=O)N1CCc1ccc(OC)c(OC)c1 (stereo unspecified)	0.76	0.03
O=C(c1ccc2ncsc2c1)N1CCN(c2ccc(O)cc2)CC1	0.02	-0.31
CNC(=O)C(=O)NCCc1ccc(Cl)cc1	0.27	1
Cc1cccc(NC(=O)CSc2nnc([C@H](C)NC(=O)OC(C)(C)C)o2)c1C	0.94	-0.99
COc1ccc(NC(=S)N(CCCN2CCC(C)CC2)Cc2cccs2)cc1	0.3	2.1
CS(=O)(=O)N1CCN(c2ccc(NC(=O)c3ccc([N+](=O)[O-])o3)cc2)CC1	0.36	-0.31
COc1ccc(CNC(=O)CN(Cc2ccccc2)C(=O)CCC(=O)Nc2nccs2)cc1	1.4	-2.6
O=C(O)CCc1ccc(-c2ccccc2)n1CC1CCCO1 (stereo unspecified)	1.3	-1.2
O=C(NCCCn1ccnc1)c1cc(-c2ccc(Br)cc2)on1	0.4	0.22
Clc1ccc(-n2cc(-c3ccc(Br)cc3)[n+]3c2CCCCC3)cc1	0.59	-0.17
Cc1csc(SCc2nc3sc4c(c3c(=O)[nH]2)CCC4)n1	2.1	-0.05
O=C(N/N=C/c1cn(Cc2ccccc2)c2ccccc12)c1ccncc1	0.16	-1.4
C=CCn1c(SCC(=O)O)nnc1-c1ccccc1	0.36	-0.01
Cc1ccc(C)c(-c2[nH]ncc2CN2CCCC(CO)(Cc3ccccc3C)C2)c1 (stereo unspecified)	0.03	-0.05
CCc1nnc(NC(=O)CSc2n[nH]c(-c3ccccc3O)n2)s1	0.06	-1.2
CCN(CC)S(=O)(=O)c1ccc(OC)nc1	1.3	0.32
CCNS(=O)(=O)c1ccc(CCC(=O)N2CCN(c3ccccc3)CC2)cc1	0.06	-0.17
COc1coc(/C=C/C(=O)O)cc1=O	0.98	-0.45
CC(C)CCN1C(=O)c2ccc(C(=O)OCC(=O)N(C)C3CCS(=O)(=O)C3)cc2C1=O (stereo unspecified)	1.4	-0.39
O=C(Nc1c(F)c(F)c(F)c(F)c1F)NC1CCCCC1	0.32	0.89
O=C(NCc1ccco1)/C(=C\c1ccco1)NC(=O)c1cccs1	0.15	0.22
COc1ccc(/C=N/n2c(=S)n(C)c3ccccc32)cc1OC	1.9	0.01
O=C1CC(c2cccc(F)c2)C2=C(CCCC2=O)N1 (stereo unspecified)	0.38	-1.6
O=C(CSc1nnc(COc2cccc3cccnc23)o1)N1CCN(C(=O)c2ccco2)CC1	0.04	-0.96
COc1ccc(C(=O)NCCC2=CCCCC2)cc1OC1CCN(C(C)C)CC1	2.2	-0.26
COC(=O)c1c(NC(=O)c2ccco2)sc2c1CC(C)(C)NC2(C)C	2.4	0.43
O=C(CN1C(=O)COc2ccc(Cl)cc21)N1CCCCC1	0.94	-0.42
CC(Oc1ccc(-c2nnco2)cc1)C(=O)N1CCOCC1 (stereo unspecified)	0.75	1.4
Cc1ccc(N(CC(=O)NC(C)(C)C)C(=O)CNC(=O)c2cccs2)cc1	1.1	0.17
O=C(COC(=O)C1CC(O)CN1S(=O)(=O)c1ccc(Cl)cc1)c1ccccc1 (stereo unspecified)	0.57	0.42
Cc1ccc(NS(=O)(=O)c2ccc(NC(=O)C3CC3)cc2)cc1C	0.65	0.02
N#C/C(=C\c1cn(CC(=O)N2CCCC2)c2ccccc12)C(=O)NCc1ccc2c(c1)OCO2	0.82	0.28
COC(=O)c1sc(-c2ccc(Cl)cc2)cc1NC(=O)c1ccccc1C(=O)O	1.4	-1.8
CCN(CC(=O)NCc1ccc(F)cc1)C(=O)C1CC1C (stereo unspecified)	1.7	0.51
NC(=O)c1ccc(NC(=O)c2ccc3c(c2)CCN3S(=O)(=O)c2ccccc2)cc1	0.72	0.86
COC(=O)/C=C/c1oc2ccccc2c1C	0.55	-0.7
O=C(c1coc(=O)c2ccccc12)N1CCN(Cc2ccccc2)CC1	1.3	0.63
CSC1=NCCN1C(=O)c1c(F)cccc1Cl	0.3	-1.5
O=C(NC(=S)N1CCCc2ccccc21)c1ccco1	0.04	1.3

Next section:
SMILES	KCNQ2 enhance	KCNQ2 enhance baseline
CC(C)OCCCn1c(SC(C)C(=O)NC2CC2)nc2ccccc2c1=O (stereo unspecified)	0.13	-0.43
O=C(c1cn(-c2ccccc2)nc1-c1ccncc1)N1CCCCC1	0.36	-0.08
Cc1ccc(CNC(=O)c2cc3c(s2)CN(Cc2ccccc2)C3)cc1	1.9	0.02
O=C(COC(=O)c1ccc2c(=O)n3c(nc2c1)CCC3)NC1CCS(=O)(=O)C1 (stereo unspecified)	0.56	1.6
COc1ccc(CCNS(=O)(=O)CCNC(=O)c2ccc3c(c2)OCO3)cc1	0.07	-0.33
COc1ccc(OCCSc2nnc3sc4ccccc4n23)cc1	0.34	-1
CCOC(=O)Cc1[nH]nc2c1C(C1C=CCCC1)C(C#N)=C(N)O2 (stereo unspecified)	0.12	-0.73
O=C(CSc1nnc2ccc(-c3ccccc3)nn12)NCC1CCCO1 (stereo unspecified)	0.56	0.53
COC(=O)c1cc(C(=O)CC(C)C)c[nH]1	0.05	-0.01
COc1ccccc1CNS(=O)(=O)c1ccc(-c2cc(C)no2)cc1	0.97	1.6
c1ccc(CNn2nnnc2-c2ccccc2)cc1	0.43	0.13
COc1ccc(C)cc1S(=O)(=O)N1CCN(C(=O)c2ncoc2-c2cccc(C)c2)CC1	1.6	-1.4
CNC(=O)c1csc(-c2cccs2)n1	1.7	-0.76
CNC(=S)NNC(=O)c1sc2cc(C(F)(F)F)cnc2c1-c1ccccn1	0.93	0.01
O=c1[nH]c(C2CCCN(S(=O)(=O)Cc3ccccc3)C2)nc2c1nnn2Cc1cccc(Cl)c1 (stereo unspecified)	0.41	1.4
COc1ccc(Cl)cc1NC(=S)N(CCN1CCOCC1)C1CCN(C(C)=O)CC1	0.33	2
COc1ccc(NC(=O)CSc2ncn(-c3ccccc3)n2)cc1Cl	0.85	0.43
COC(=O)Nc1c(-c2ccccc2)nc2ccccn12	0.34	3.8
O=C(O)CCC(=O)Nc1cccc(C(=O)c2ccccc2)c1	0.69	2.2
O=C(CSCc1ccccc1)Nc1nccs1	0.02	-0.06
COCCn1c(SCC(=O)Nc2ccccc2OC)nnc1-c1ccco1	0.35	-0.35
O=C(OCCN1CCCCC1)c1ccc(Cl)cc1	0.61	0.68
COc1ccc(-c2nc(NC(C)=O)sc2-c2ccc(OC)cc2)cc1	0.25	0.03
c1ccc(C2=Nc3cccnc3C(c3ccccc3)=NN2)cc1	1.6	-0.94
COc1ccc(S(=O)(=O)N(C)CC(=O)NCCN2CCOCC2)cc1	0.02	-0.09
COc1ccc(C(=O)N2N=C(c3ccccc3)CC2(O)C(F)(F)F)cc1 (stereo unspecified)	1.4	-0.57
N#C/C(=C\c1ccccc1)c1n[nH]c(Cn2cncn2)n1	0.92	0.36
C/C(CS(=O)(=O)c1ccccc1)=N\O	0.81	-0.52
O=c1ccc(OCCOc2ccccc2)nn1-c1ccccc1	0.01	2
COc1ccc(C)cc1S(=O)(=O)N(C)CC(=O)NCc1ccccn1	1.4	-0.34
Cc1cccc(OCCCCN2CCNCC2)c1	0.1	-1.8
CCn1cc(Br)c(C(=O)NC(=S)Nc2ccc(C(=O)OC)cc2)n1	0.86	-0.73
CCOc1cc(/C=C2/C(=O)ON=C2C)cc(Br)c1O	0.24	0.24
COCCn1c(N2CCN(c3ccc(OC)cc3)CC2)nc2c1c(=O)[nH]c(=O)n2C	0.12	1.8
Cc1cc(C(C)(C)C)cc(C)c1CCNC(=O)c1ccc[n+]([O-])c1	1	0.5
COc1ccc(OCC(=O)Nc2ccc(NC(=O)c3ccco3)c(C)c2)cc1	0.91	0.71
O=C(NC1CCCC1)C(c1cccs1)N(C(=O)c1ccco1)c1ccc2c(c1)OCO2 (stereo unspecified)	0.04	-0.78
COC(=O)c1ccc(C)c(NC(=O)Cc2coc3cc(OC)ccc23)c1	0.72	0.05
COc1ccc(NC(=S)Nc2ccc(OC(F)F)cc2)cn1	0.85	0.6
Cc1ccc(S(=O)(=O)Cc2ccc(C(=O)N3CCN(c4ccc(F)cc4)CC3)o2)cc1	0.24	-1.1

Shown comma-delimited: entries from further up.
compound,KCNQ2 enhance,KCNQ2 enhance baseline
COc1ccc(Cl)cc1NC(=S)N(CCN1CCOCC1)C1CCN(C(C)=O)CC1,0.33,2
COc1ccc(NC(=O)CSc2ncn(-c3ccccc3)n2)cc1Cl,0.85,0.43
COC(=O)Nc1c(-c2ccccc2)nc2ccccn12,0.34,3.8

Profiles as entered above. Order of screens: KCNQ2 enhance	KCNQ2 enhance baseline
Profile of COc1ccc(OCC(=O)Nc2ccc(NC(=O)c3ccco3)c(C)c2)cc1 → 0.91	0.71
Profile of COC(=O)c1ccc(C)c(NC(=O)Cc2coc3cc(OC)ccc23)c1 → 0.72	0.05
Profile of COCCn1c(SCC(=O)Nc2ccccc2OC)nnc1-c1ccco1 → 0.35	-0.35

Some of the compounds tested; rates above refer to the full screens.
